# Bioassay records as filed in PubChem BioAssay.
# Ab BasE inh: inhibitors of Acinetobacter baumannii siderophore enzyme BasE. purified BasE, fluorescence polarization binding displacement. inhibition, % (concentration not given with the values). 84,000 tested, 0.1% active. AID 485350;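 active = both replicates above 25% with normal brightness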;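 note: 0% = negative plate control signal and 100% = positive plate control signal; stock transfer was 100 nL into about 30 µL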
# KSHV LANA nucl: LANA-nucleosome interaction inhibition; 51,000 tested, 0.3% active; FITC-LANA1-23 / chicken nucleosome fluorescence polarization; hits give low values; z-score (no concentration beside the values); AID 720717;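 active = both repeat wells score below -2 in polarization z-score versus plate sample wells, excluding overly bright wells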;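 note: 100 nL library stock added to about 30 µL; numbers are from one replicate; some results filed as inactive read as strong as hits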
#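 Assay system: FITC-LANA peptide and chicken nucleosomes; input: 240 nM purified chicken nucleosomes (480 nM peptide binding sites), final; also added: 50 nM FITC-LANA1-23 probe; medium: TEN-BT buffer, pH 7.5; doses: pin-transferred compound, 100 nL; times: 10–45 min, room temperature; technique: fluorescence polarization; replication: duplicates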
# * marks the source's active call; other numbers are inactive results; · = not tested or not shown. These rows are one share of the data; rates above refer to the full screens.
no.	mol	Ab BasE inh	KSHV LANA nucl
1	Cc1ccc(CNc2ccc3c(c2)CCC3)o1	-2.5	-1.53
2	Cc1cc(NC(=O)C2CCC2)n(-c2ccccn2)n1	0.7	·
3	O=C(CN(c1ccc2c(c1)OCCO2)S(=O)(=O)c1ccccc1)NCc1ccco1	-0.8	0.563
4	Cc1cccc(C(=O)OCC(=O)Nc2oc(C)c3c(C)n[nH]c(=O)c23)c1O	2.1	·
5	C/C(=N\N=C1/NC(=O)CC(C(N)=O)S1)c1cccs1 (configuration not stated)	3.4	-0.305
6	Cc1oc2ccc(O)c(CN3CCN(Cc4ccccc4)CC3)c2c1C(=O)Nc1ccc(C(C)C)cc1	0.0	0.857
7	O=C1CN(C(=O)COC(=O)c2ccccc2)c2ccccc2N1	-6.7	·
8	O=C(Nc1ccc(-c2nc3ccccc3o2)cc1)C1CCCC1	2.4	-0.971
9	CC1(C)CC(C(CC#N)c2ccccc2)CCO1 (configuration not stated)	2.0	0.0715
10	COc1cccc(C2C3=C(CCCC3=O)N(C)C3=C2C(=O)CCC3)c1	0.9	-0.188
11	CCn1c(=O)n(CC)c2cc(N3CCCC3)c(NC(=O)CC(=O)OC)cc21	4.6	-0.0965
12	Cc1nc2nc(CCc3ccccc3)nn2c(C)c1Cl	-0.2	-1.39
13	CC(C)(C)Nc1nc2nonc2nc1NC(C)(C)C	-0.7	·
14	CC(C#N)Sc1nnc(-c2ccco2)n1Cc1ccccc1 (configuration not stated)	0.5	·
15	COc1ccc(-c2cc(-c3cccs3)n(-c3nc(C)cc(=O)[nH]3)n2)cc1	-5.7	0.559
16	O=C(COC(=O)C1(c2ccc(F)cc2)CCCC1)NC1CC1	2.6	·
17	c1ccc(-c2noc(CC3CCCCC3)n2)cc1	-4.0	-0.516
18	Cc1cc(NC(=O)CSc2nnc(Cn3c(=O)sc4ccccc43)n2-c2ccccc2)no1	-2.0	2.75
19	Cc1cc(C)cc(Oc2c(C(F)(F)F)oc3c(CN4CC(C)OC(C)C4)c(O)ccc3c2=O)c1 (configuration not stated)	-3.8	·
20	CCc1nnc(NC(=O)CSc2nc3c(c(=O)n2Cc2ccccc2)SC(C)C3)s1 (configuration not stated)	0.2	-1.37
21	CCc1ccc2oc(C(=O)Nc3ccccc3OC)c(C)c2c1	0.3	-0.056
22	CC(=O)Nc1ccc(C(=O)N(C)Cc2cccc(F)c2)cc1	-0.8	·
23	Fc1ccccc1OCc1n[nH]c(=S)n1-c1ccccc1	1.0	·
24	COc1ccc(C(=O)Nc2ccc(N3CCN(C(=O)OC(C)(C)C)CC3)nc2)cc1	-5.5	·
25	Oc1ccc(-c2csnn2)cc1	·	-0.325

# Next part, starting with the last 3 of the part before.
no.	mol	Ab BasE inh	KSHV LANA nucl
23	Fc1ccccc1OCc1n[nH]c(=S)n1-c1ccccc1	1.0	·
24	COc1ccc(C(=O)Nc2ccc(N3CCN(C(=O)OC(C)(C)C)CC3)nc2)cc1	-5.5	·
25	Oc1ccc(-c2csnn2)cc1	·	-0.325
26	CCCCOCC1CC(CC#CCN2CCCCC2)C(=O)O1 (configuration not stated)	-1.3	-0.373
27	CCCc1cc(SCC(=O)O)n2c(nc3ccccc32)c1C#N	-1.1	-0.397
28	CC(C)(C)NS(=O)(=O)CC12CCC(CC1=O)C2(C)C (configuration not stated)	1.9	·
29	CCN(CC(=O)NCc1cccs1)Cc1cc(=O)oc2cc(O)ccc12	-0.4	·
30	OCc1cnc(SCc2ccccc2)n1Cc1ccccc1	1.3	1.04
31	Cn1c(=O)cc(N2CCCCC2)c2c(=O)n(-c3ccccc3)c(=O)n(-c3ccccc3)c21	2.1	0.119
32	CCOC(=O)c1sc2sc(C(=O)OCC)c(CN(CC)CC)c2c1CN(CC)CC	1.0	-1.25
33	FC(F)(F)c1cccc(Oc2cnc3ccccc3n2)c1	·	-0.137
34	CC/C(=N\NC(=O)C1CC1)c1cccc(Cl)c1	1.9	·
35	CC1(C)CC(=O)C2=C(C1)OC(N)=C(C#N)C2C#Cc1ccccc1 (configuration not stated)	2.6	-0.653
36	O=C(/C=C/c1ccccc1)N1CCCCC1	-0.4	-0.1
37	O=C(COC(=O)CC1Sc2ccccc2NC1=O)NC1CC1 (configuration not stated)	2.5	·
38	CN(CCc1ccccn1)C(=O)c1cccc(C(F)(F)F)c1	4.5	·
39	CSc1ccc(S(=O)(=O)N2CCCCC2)cc1	-0.2	-0.608
40	Cc1cc(O)c(C(c2ccncc2)N2CCCCC2)c(=O)n1Cc1ccco1 (configuration not stated)	0.1	1.31
41	O=C(NCCc1cccs1)C1CCN(Cc2cnn(-c3ccccc3)c2-n2cccc2)CC1	-1.4	-0.134
42	N#Cc1ccsc1NC(=O)c1cccnc1N1CCCC1	-2.8	·
43	O=C(NCc1cccs1)c1cc2c(s1)CS(=O)(=O)C2	-2.8	0.511
44	Cc1cc(C)c(S)c(C)c1	3.4	·
45	Cc1nc2cc(NC(=O)c3ccc(S(=O)(=O)N(C)Cc4ccccc4)cc3)ccc2s1	0.6	·
46	CCSC1=C(C#N)C(c2ccccc2)C(C(=O)Nc2ccccc2)=C(C)N1 (configuration not stated)	-0.9	0.436
47	Cc1ccc(C(=O)CNc2ccccc2)cc1	-0.7	·
48	CCc1cccc(-n2nnc(-c3nsc(NC(=O)c4ccccc4)n3)c2C)c1	-0.6	-0.295
49	COc1ccccc1N/C=C(\C#N)c1ccc(Cl)cc1	·	-1.02
50	CN1CCCN(C(=O)C2CCN(S(=O)(=O)c3cccs3)CC2)c2nc3ccccc3nc21	-0.6	·
51	N=C1C(c2ccccc2)=C(O)CN1c1ccccc1	3.8	-0.383
52	COCC(=O)NC1CCN(Cc2nnnn2Cc2ccc3c(c2)OCO3)CC1	0.1	-0.325
53	O=C(NC1CC2CCC(C1)N2Cc1nnnn1Cc1ccco1)NC12CC3CC(CC(C3)C1)C2 (configuration not stated)	3.4	-0.337
54	CCNC(=O)C1CCN(C2=NS(=O)(=O)C(c3ccc(C)cc3)=C2CC)CC1	-1.0	-0.163
55	O=C(c1ccccc1Cl)n1cc(Cl)cn1	0.8	-1.27
56	Sc1sccc1C=NC1CCCCC1	-1.5	0.281
57	NC(=O)CSc1nc2cc(S(=O)(=O)Nc3cccc(Cl)c3)ccc2o1	-0.2	·
58	CCOCCC(=O)Nc1cc(C)cc(C)c1	-1.4	0.826
59	COC(=O)c1ccc(CSc2ccc3nnc(-c4ccccn4)n3n2)o1	3.8	0.005
60	CC(C)(c1ccccc1)n1nnc(-c2ccccc2)n1	0.5	-0.704
61	CC1(C)C2CC=C(/C=N/N3C(=O)NC4(CCCCC4)C3=O)C1C2 (configuration not stated)	4.2	·
62	O=C(NC1CCSc2ccccc21)c1ccccc1 (configuration not stated)	0.1	·
63	CCn1c(SC)nnc1C1CCCN1CC(=O)N1CCN(Cc2ccc3c(c2)OCO3)CC1 (configuration not stated)	-1.4	-0.776
64	CCOC(=O)N1CCN(S(=O)(=O)c2ccc(C(=O)Nc3ccc4nc(SC)sc4c3)cc2)CC1	-0.9	2.53
65	COC(=O)c1cc(-c2cccs2)nc2c1c(C)nn2-c1ccccc1	-4.6	·
66	CC/C(=N\O)c1ccc(CCCCCC(=O)O)s1	3.0	-0.284
67	Cc1cc(OC(=O)C2COc3ccccc3O2)cc(C)c1Cl (configuration not stated)	1.8	·
68	O=C(O)C1CCN(C(=O)c2cccs2)CC1	-0.4	-0.253
69	CCN1CCCC1CNC(=O)NC1CC(=O)N(c2ccc(C)cc2)C1 (configuration not stated)	1.3	-1.08
70	NCCCOC1CCCCC1	0.2	·
71	CN1C(=O)NC(c2cccnc2)C(C(=O)c2cccs2)C1(O)C(F)(F)F (configuration not stated)	3.0	·
72	CC(C)NC(=O)c1c(O)nc2ccccn2c1=O	0.8	-0.0215
73	O=C(c1cnc2nc3ccccc3n2c1)c1cc(F)ccc1O	-1.7	·
74	CCCN1CCC(N2CCC(C(=O)OCC)CC2)CC1	1.9	-0.918
75	COC(=O)CCc1c(C)[nH]c(=S)[nH]c1=O	0.6	·

# Other results follow.
no.	mol	Ab BasE inh	KSHV LANA nucl
76	CC(C)(C)c1ccc(/C=C2/NC(=O)N(Cc3ccc(Br)cc3)C2=O)cc1	1.1	·
77	O=c1ccnc(NCCc2ccccc2)[nH]1	0.7	-1.51
78	O=C(c1ccco1)N1CCN(C(c2ccccc2)c2nnnn2Cc2ccccc2)CC1 (configuration not stated)	-0.8	-0.308
79	CC/C=C\C/C=C\C/C=C\C/C=C\C/C=C\C/C=C\CCC(=O)O	-5.3	-0.0585
80	CCN(CC)CCSc1ccc(-c2ccccn2)nn1	-0.8	-0.357
81	CCCn1c(-c2ccccc2)nc2ccccc21	-1.7	·
82	CCOC(=O)c1ccc(OCC(=O)OC)cc1	-0.3	1.22
83	N#Cc1c(NC(=O)C#Cc2ccccc2)sc2c1CCC2	-2.0	0.515
84	OC1(C(F)(F)F)CC(c2nccs2)=NN1 (configuration not stated)	0.4	·
85	N#Cc1ccc(CN2C(=O)CC3(CCCC3)C2=O)cc1	1.8	·
86	COc1cc(Cl)c(NC(=O)CC(C)n2nc(C)cc2C)c(OC)c1 (configuration not stated)	1.2	-1.09
87	CN(C(=O)Cn1ncc2c([nH]c3ccccc32)c1=O)c1ccccc1	-5.3	0.167
88	COc1ccc(CN(C)C(=O)COc2ccc(-c3nnco3)cc2)c(OC)c1OC	1.6	·
89	c1ccc(-c2cn3ncsc3n2)cc1	-1.3	0.0325
90	COc1ccccc1OCC#CCNCC1CCCO1 (configuration not stated)	0.2	-0.433
91	CCC(C)OC(=O)COc1ccc2c(=O)c(Oc3ccccc3Cl)coc2c1 (configuration not stated)	0.4	·
92	COCCn1c(C2CC(=O)N(CC(C)C)C2)nc2ccccc21 (configuration not stated)	-1.1	-0.763
93	COc1ccc(CN(C)C(=O)COc2ncnc3ccccc23)c(OC)c1OC	-1.8	·
94	COc1ccc(/C(C#N)=C/c2cccc(O)c2)cc1OC	1.2	-0.411
95	O=C(COc1ccc(Oc2ccccc2)cc1)NCc1cn2ccsc2n1	1.0	·
96	Nc1nc(SC(C(=O)c2c[nH]c3ccccc23)c2ccccc2)n[nH]1 (configuration not stated)	1.2	·
97	Cc1onc(-c2c(F)cccc2Cl)c1C(=O)NC(=S)NCc1cccnc1	-2.3	1.4
98	CCc1cc2ccccc2nc1SCC(=O)N1CCCC1	-0.9	-0.196
99	O=C(Cc1ccc(Cl)cc1)Nc1ccc2[nH]c(=O)[nH]c2c1	2.1	-0.303
100	COc1ccc(C)cc1NC(=O)C(Sc1nnnn1Cc1cccs1)c1ccccc1 (configuration not stated)	-0.7	·

# Not a retest: an excerpt of the list.
no.	mol	Ab BasE inh	KSHV LANA nucl
79	CC/C=C\C/C=C\C/C=C\C/C=C\C/C=C\C/C=C\CCC(=O)O	-5.3	-0.0585
80	CCN(CC)CCSc1ccc(-c2ccccn2)nn1	-0.8	-0.357
81	CCCn1c(-c2ccccc2)nc2ccccc21	-1.7	·
82	CCOC(=O)c1ccc(OCC(=O)OC)cc1	-0.3	1.22
83	N#Cc1c(NC(=O)C#Cc2ccccc2)sc2c1CCC2	-2.0	0.515
84	OC1(C(F)(F)F)CC(c2nccs2)=NN1 (configuration not stated)	0.4	·
85	N#Cc1ccc(CN2C(=O)CC3(CCCC3)C2=O)cc1	1.8	·

# Continued.
no.	mol	Ab BasE inh	KSHV LANA nucl
101	COc1cccc(C(=O)NC2=NC(c3ccccc3Cl)CC(=O)N2)c1 (configuration not stated)	-0.7	-0.333
102	Cc1cccc(N2CCN(CCCNC(=O)CCN3C(=O)c4cccnc4Sc4ccccc43)C(C)C2)c1 (configuration not stated)	-0.7	0.374
103	COc1cc2c(cc1OC)C(Cc1ccc(O)cc1)N(C)CC2 (configuration not stated)	1.0	0.132
104	COc1ccc(C(CN)c2c[nH]c3ccccc23)cc1 (configuration not stated)	-3.0	0.385
105	O=C(O)Cn1nnnc1SCC(=O)Nc1ccc(F)cc1F	-3.5	1.2
106	CCOC(=O)C1CCCCN1S(=O)(=O)c1ccc2c(c1)CC(C)N2C(=O)C1CC1 (configuration not stated)	-0.5	-0.483
107	Cc1cc2ccccc2c(=O)n1CC(=O)NCC(=O)Nc1ccc(F)cc1	-1.0	0.319
108	COC(=O)c1ccc(CSc2nc(N)c3c4c(sc3n2)CCCC4)o1	-0.7	·
109	CCOC(=O)c1ccc(NC(=O)CNC(=O)C23CC4CC(CC(C4)C2)C3)cc1	0.8	·
110	c1ccc2[nH]c(SCc3nc4ccccc4o3)nc2c1	-1.0	·
111	Cc1cccn2c(=O)c(/C=N/O)c(N3CCCCC3)nc12	1.5	·
112	CCOC(=O)C1=C(Sc2nnc3nc(C)cc(C)n23)NC(=O)NC1c1ccccc1 (configuration not stated)	-0.4	0.367
113	CC(C)c1ccc(-n2c(NN)nc3ccccc3c2=O)cc1	0.7	·
114	NC(=S)N/N=C/C=C/c1ccccc1	5.9	-0.577
115	Cc1ccc2cc(CN(CCN(C)C)C(=O)NC3CCCCC3)c(=O)[nH]c2c1	-4.1	-0.331
116	O=C(CSc1nnc(-c2ccccc2F)n1C1CC1)c1ccc(Cl)s1	-2.5	·
117	O=S(=O)(c1ccc(N=c2scc(-c3ccco3)n2/N=C/c2ccc3c(c2)OCO3)cc1)N1CCOCC1	0.1	·

# Arranged by value in KSHV LANA nucl (descending): three from the list above.
No.	structure	KSHV LANA nucl
105	O=C(O)Cn1nnnc1SCC(=O)Nc1ccc(F)cc1F	1.2
107	Cc1cc2ccccc2c(=O)n1CC(=O)NCC(=O)Nc1ccc(F)cc1	0.319
115	Cc1ccc2cc(CN(CCN(C)C)C(=O)NC3CCCCC3)c(=O)[nH]c2c1	-0.331
